Assay outcomes deposited in PubChem BioAssay by National Center for Advancing Translational Sciences (NCATS).
ELG1 repair inh = inhibitors of ELG1-dependent DNA repair in HEK293T cells; HEK293T ELG1-luciferase reporter, luminescence, 16 h; DNA damage induced by 5-fluorouridine; Potency, µM (doses to about 46.1 µM), inactives show top-dose activity change, negative = inhibition, hits mostly inhibitors; hit rate 2.3% among 330,000; further: potency means the concentration at half of the fitted maximal effect; on the % scale 0 is the no-effect control and ±100 the full control effect; nearly all actives have a fitted effect of over 55% in size
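5-Fluorouridine DNA damage + compound/DMSO, 2,000 cells/well, 16 h, 37 °C/5% CO2. ONE-Glo, 30 min RT, luminescence. Readout = decrease in reporter signal.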
ASM inhibitor = inhibitors of human secretory acid sphingomyelinase; P17405; AID 504937; hit rate 0.006% among 340,000; placental ASM, HMU-PC fluorogenic substrate, 60 min; Potency, µM (doses to about 57.5 µM), for the others: top-dose activity change, negative = inhibition, hits mostly inhibitors; further: potency means the concentration at half of the fitted maximal effect
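Fluorogenic HMU-PC substrate (9 uM final) is turned over by placental ASM in 60 min at 37 C after a 10 min compound preincubation. Reaction ended by alkaline stop (pH 10), with fluorescence read at 386/447 nm.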
Chronic BCR inh = inhibitors of chronic active B-cell receptor signaling. hit rate 0.05% among 340,000. ABC-DLBCL IkBa-CBG/CBR reporter, luminescence ratio, 4 h. AID 493014. Potency, µM (titrated, usually from 46.1 µM), inactives show top-dose ratio change, negative = lower green/red ratio, most hits filed as inhibitors; active means well fitted inhibition curve with a large enough effect in the signal ratio, with a control signal flat, not every such curve was filed as active; inconclusive means small, poorly fitted or top-dose-only effect, or effect the other way, or a change in a side signal; the % refers to the signal ratio;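 further: potency means the concentration at half of the fitted maximal effect; plate controls were basal doxycycline-induced cells for no effect and cells given 10 µM MG132 for full effect; MG132 reads +100%, hits lower the ratio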
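Concentration-response series (up to 46 uM) were applied to TMD8 dual-reporter cells for 4 h at 37C with doxycycline. Green/red ratio, after filter-overlap correction, defined %Activity; red signal alone was normalised to basal cells and zero luminescence.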
Eya2 phos inh = inhibitors of human Eya2 phosphatase activity; O00167; recombinant Eya2, OMFP fluorescence dephosphorylation (OMFP is methylfluorescein phosphate); Potency, µM (titrated, usually from 76.9 µM), for the others: at the top dose activity, negative = inhibition, usual class: inhibitors; hit rate 0.006% among 330,000; AID 488837; further: potency means the concentration at half of the fitted maximal effect; on the % scale 0 is the no-effect control and ±100 the full control effect
Target sequence (O00167 whole entry, looked up): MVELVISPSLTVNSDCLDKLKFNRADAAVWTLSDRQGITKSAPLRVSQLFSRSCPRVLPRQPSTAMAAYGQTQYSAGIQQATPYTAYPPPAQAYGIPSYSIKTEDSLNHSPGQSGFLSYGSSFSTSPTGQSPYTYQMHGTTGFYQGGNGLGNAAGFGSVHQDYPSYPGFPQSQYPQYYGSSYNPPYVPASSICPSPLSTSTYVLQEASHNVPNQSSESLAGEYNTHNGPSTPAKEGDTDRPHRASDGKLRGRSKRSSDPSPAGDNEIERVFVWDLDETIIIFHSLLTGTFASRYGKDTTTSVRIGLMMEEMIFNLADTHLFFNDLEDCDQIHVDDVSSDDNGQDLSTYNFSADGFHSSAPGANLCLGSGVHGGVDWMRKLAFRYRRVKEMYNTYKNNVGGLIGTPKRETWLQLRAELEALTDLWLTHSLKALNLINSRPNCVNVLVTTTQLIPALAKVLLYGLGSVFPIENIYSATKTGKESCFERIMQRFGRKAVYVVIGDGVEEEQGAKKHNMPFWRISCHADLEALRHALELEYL
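Eya2 (0.2 uM) preincubated 10 min at ambient with compound, then OMFP substrate added at 50 uM; 10 min reaction in 50 mM HEPES pH 7.5, 50 mM NaCl, 5 uM MgCl2, 0.05% BSA, 1 mM DTT. Fluorescence read at Ex 485/Em 525 nm.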
TCR activator = T cell receptor activation | Potency, µM (highest dose often 9.22 µM), inactives show top-dose activation of IL-2 secretion, actives largely listed as activators | 330,000 tested, under 10 active | primary human leukocytes, anti-CD3, IL-2 HTRF, 48 h | AID 504894; further: % of control where 0% means no effect
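Compounds are tested in HTS on primary human leukocytes co-incubated with a-CD3 beads for 48 hr. IL-2 output is measured by time-resolved FRET.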
Mito fusion act = inhibitors of mitochondrial division or activators of mitochondrial fusion. Potency, µM (highest dose often 46.1 µM), for the others: at the top dose growth rescue (activation), usual class: activators. S. cerevisiae fusion-defective mutant growth rescue, CellTiterGlo 48 h. hit rate 0.23% among 320,000;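 further: potency means the concentration at half of the fitted maximal effect; % of control where 0% means no effect; nearly all actives have a fitted effect of over 45% in size; temperature-sensitive fusion mutants such as fzo1-1 at 37 °C on non-fermentable ethanol glycerol medium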
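Read-out: ATP-based luminescence (CellTiterGlo, 10 min ambient) reporting growth of fusion-defective ts yeast after 48 hours at 37C on glycerol/ethanol YPEG medium in the presence of compound.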
a7 integrin act = activators of alpha7 integrin expression for muscular dystrophy. AID 624291. hit rate 0.064% among 350,000. alpha7betagal myoblasts, beta-gal FDG fluorescence, 48 h. Potency, µM (series often up to 38.3 µM), for inactives: at the top dose activation, usual class: activators;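 further: potency means the concentration at half of the fitted maximal effect; 100% = response of the positive control SU9516; nearly all actives have a fitted effect of over 60% in size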
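Alpha7betagal+/- myoblasts (passage 13) were plated 16-24 hr, then exposed to compounds (1:260 dilution of DMSO stock) for 48 hours at 37C. After MPER lysis, β-galactosidase reporter activity was read as FDG fluorescence (ex 480/em 540) after 30 minutes.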
TSG101-PTAP inh = blocks PTAP/TSG101 interaction to inhibit HIV-1 budding; Fluorescence polarization, FITC-PTAP peptide / Tsg101 binding; Potency, µM (series often up to 115 µM), for the others: top-dose activity change, negative = inhibition, usual class: inhibitors; 340,000 tested, under 10 active; active means well fitted inhibition curve with a large enough effect in the main read-out, with a control signal flat, not every such curve was filed as active; inconclusive means small, poorly fitted or top-dose-only effect, or effect the other way, or a change in a side signal; inactive means no such curve, though single readings can be large or run the other way; further: potency means the concentration at half of the fitted maximal effect; % of control where 0% means no effect
Target sequence (Q99816 whole entry, looked up): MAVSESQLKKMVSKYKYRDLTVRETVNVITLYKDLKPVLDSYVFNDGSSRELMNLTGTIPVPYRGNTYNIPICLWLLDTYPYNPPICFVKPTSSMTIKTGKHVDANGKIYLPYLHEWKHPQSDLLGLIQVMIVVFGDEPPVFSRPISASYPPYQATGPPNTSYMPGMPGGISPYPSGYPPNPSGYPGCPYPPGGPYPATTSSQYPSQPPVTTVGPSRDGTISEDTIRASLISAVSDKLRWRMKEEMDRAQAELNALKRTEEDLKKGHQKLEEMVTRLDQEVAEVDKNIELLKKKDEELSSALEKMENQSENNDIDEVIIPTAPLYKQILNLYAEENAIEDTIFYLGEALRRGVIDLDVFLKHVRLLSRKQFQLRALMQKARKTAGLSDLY
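FP read-out: FITC-PTAP peptide, 50 nM final, binding Tsg101 binding domain, 10 uM final; 20 min, r.t.; 10 mM HEPES pH 7.5, 0.15 M NaCl, 0.01% Tween 20, 3 mM EDTA, 0.1 mM TCEP.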
Tb PFK block = blocks T. brucei phosphofructokinase; O15648; T. brucei PFK, ADP-Glo luminescence; Potency, µM (series often up to 57.5 µM), for the others: top-dose activity, negative = inhibition, hits mostly inhibitors; hit rate 0.17% among 330,000; AID 485367;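 further: potency means the concentration at half of the fitted maximal effect; 0% = uninhibited 1x PFK enzyme wells and -100% = no-enzyme wells; nearly all actives have a fitted effect of over 60% in size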
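1.25 nM PFK with 0.5 mM F6P and 0.1 mM ATP in 0.1 M TEA pH 8.0, 5 mM MgCl2, incubated 45 min at room temperature; ADP measured by ADP-Glo luminescence; compounds titrated up to 57 uM.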
A-T KAP1 phos = candidate therapy for ataxia-telangiectasia. Potency, µM (titrated, usually from 57.5 µM), for the others: at the highest dose activation, most hits filed as activators. hit rate 0.19% among 320,000. […] A-T fibroblasts, KAP-1 phosphorylation AlphaLISA; neocarzinostatin DNA damage 30 min before lysis; further: potency means the concentration at half of the fitted maximal effect; % of control where 0% means no effect; nearly all actives have a fitted effect of over 45% in size
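ATM-like activity read as KAP-1 phosphorylation via AlphaLISA donor/acceptor antibody pairs after lysis and 6 hr at 25C. Cells were ATM-null patient fibroblasts ([…], hTERT), dosed 60 min, then exposed to the DSB inducer NCS for 30 min.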
* = called active by the depositor; ? = inconclusive; . = no result given; [ ] = dose if it differs, or a comment. Unless noted, the call rests on the fitted dose curve; in most records, active means well fitted curve in the direction sought with a large enough effect; inconclusive means small, poorly fitted or top-dose-only effect, or another doubt; inactive means no such curve, though single readings can be large; an effect the other way counts as inactive or inconclusive. These rows are one share of the data, so the mix of outcomes need not match the whole.

structure | ELG1 repair inh | ASM inhibitor | Chronic BCR inh | Eya2 phos inh | TCR activator | Mito fusion act | a7 integrin act | TSG101-PTAP inh | Tb PFK block | A-T KAP1 phos
CCOc1ccccc1N/C(=N/c1nc(C)cc(C)n1)NC(=O)Nc1ccc(Cl)c(Cl)c1 | 3% | . | ? | 5% | 0%[46.1 µM] | -4% | . | . | -15% | 7%
O=c1c2c(nc3c(-c4ccccc4)c[nH]n13)CCC2 | -16% | -1% | ? | 3% | -4% | 2% | 3% | -8% | -9% | -5%
CCn1c(COc2ccc(Cl)cc2)nnc1SCC(=O)Nc1ccc2c(c1)OCCO2 | 0% | -4% | -15% | 3% | 4% | 0% | 28% | -3% | 2% | 19%
O=C(CNC(=O)Cn1cnc2sc3c(c2c1=O)CCCC3)NCc1ccccn1 | 15% | 0% | -1% | 16% | -10% | 2% | 10% | -5% | 1% | -4%
COc1cc(/C=C2/SC(=O)NC2=O)ccc1OC(=O)c1ccco1 | -2% | -4% | 6% | -1% | 1% | 7% | 9% | -2% | -2% | 3%
CCOc1ccc(C=NC23CN4CN(CN(C4)C2)C3)cc1 | 11% | 2% | -16% | -5% | 6% | -2% | 27% | -24% | 0% | 2%
Cc1ccc(S(=O)(=O)N2CCN(Cc3cc4c(cc3Br)OCCO4)CC2)cc1 | -11% | 1% | -1% | 2% | 2% | 15% | -5% | 3% | -2% | 3%
O=C(N/N=C/c1ccncc1)c1ccc(NS(=O)(=O)c2cccs2)cc1 | -25% | 0% | ? | 8% | 0% | 2% | 10% | 0% | 10% | -8%
CCOCc1nnc(NC(=O)C2CCN(C(=O)c3ccco3)CC2)s1 | 6% | 4% | ? | -6% | -2% | 12% | -8% | 0% | 0% | 5%
Cc1cc(C(C)(C)C)c(OC(=O)[C@@H]2OC(c3ccccc3)=C[C@H]2c2ccccc2)c(C(C)(C)C)c1 | -1% | 18% | 13% | -13% | -2% | 5% | -2% | -1% | -2% | 14%
Nc1ccc(C(=O)NCC(=O)O)cc1 | 19% | -5% | -3% | 8% | -6% | -3% | . | 1% | -8% | 2%
CN1CCNC(=O)C1CC(=O)NCCC1=CCCCC1 (stereo not given) | 3% | 2% | -5% | -6% | 12% | -2% | 7% | -7% | 0% | 2%
COc1cccc(OCc2cc(C(=O)N3CCNC(=O)C3Cc3ccccc3)no2)c1 (stereo not given) | ? | -1% | 0% | 1% | 5% | 2% | 8% | -5% | -6% | 7%
CCc1ccc(C2C(C(=O)O)c3ccccc3C(=O)N2C)cc1 (stereo not given) | 6% | 1% | -15% | -9% | -2% | 0% | -15% | -11% | -2% | 2%
COC(=O)c1ccc2nc(NC(=O)CCS(=O)(=O)c3ccccc3)sc2c1 | -10% | -3% | ? | 1% | -23% | 3% | -46%[inhibitor] | -2% | -5% | 8%
Cc1[nH]n2c(=O)c3c(nc2c1-c1cccc2ccccc12)CCC3 | -6% | 26% | 6% | 3% | 0% | 0% | -9% | -1% | 0% | 1%
Cc1oc(-c2ccc(Cl)cc2)cc1C(=O)/C(C#N)=C/Nc1cccc(OC(F)(F)F)c1 | ? | -4% | ? | -3% | 0% | -3% | 9% | 1% | -1% | -7%
CCc1ccccc1NC(=O)c1ccc2c(O)c(S(=O)(=O)c3ccc(OC)cc3)c(=O)[nH]c2c1 | 15% | 9% | 0% | -9% | -2% | 15% | 2% | -3% | -2% | -4%
CC1=C(/C=C/C(C)=C/C=C/C(C)=C\C(=O)O)C(C)(C)CCC1 | . | -6% | . | 7% | -8% | 8% | . | -2% | . | .
COc1ccc(N/N=C(/C(N)=O)C2=NC(C)(C)Cc3ccccc32)cc1 | 23µM* | -22% | ? | -5% | 1%[46.1 µM] | -6% | 1% | -3% | -7% | -8%
CCOc1ccccc1OCCNC1CCCC1 | -8% | -4% | 0% | -15% | -8% | -5% | 6% | -5% | -1% | -9%
O=C(CSc1n[nH]c(-c2ccccc2)n1)c1ccccc1 | ? | 4% | ? | -31% | 5% | 13% | 18% | -2% | -13% | 0%
COc1ccccc1[N+](=O)[O-] | 5% | -7% | 0% | 13% | -4% | -14% | . | 1% | 0% | -1%
COc1ccc(-c2nnc(S/C(=C/c3ccc(Cl)cc3)C(=O)O)o2)cc1 | -12% | 0% | -1% | 4% | . | -7% | 11% | -3% | -6% | -5%
CC1CCCN(S(=O)(=O)c2ccc(NC(=O)CNC3CCCC3)cc2)C1 (stereo not given) | -5% | 7% | -9% | -16% | 0% | -9% | -3% | 2% | -11% | -4%
COc1ccc2cc(C#N)c(N3CCOCC3)nc2c1 | -26% | 135%[activator] | -11% | -2% | . | -4% | 6% | 0% | 2% | 21%
CC(C)CCNC(=O)C(c1ccco1)N(Cc1ccccc1)C(=O)c1snc(C(N)=O)c1N (stereo not given) | ? | 310%[activator] | 3% | 2% | . | 4% | -19% | . | -6% | 3%
CC(=O)O[C@H]1CC2(C)[C@@H](C[C@@H](O)[C@H]3[C@@]4(C)CC[C@@H](O)[C@@H](C)[C@@H]4CC[C@@]32C)C1=C(CCC=C(C)C)C(=O)O (stereo not given in full) | . | . | . | 2% | . | -1% | . | . | . | .
Cc1cc(N/N=C/c2ccc(F)cc2)nc(-n2nc(C)cc2C)n1 | ? | -1% | ? | -3% | 2% | ? | -30% | -4% | 4% | 38%
Cc1nn(-c2ccccc2)c2[nH]c(=O)c(CNCc3ccc4c(c3)OCO4)cc12 | -14% | 1% | ? | -3% | 3% | -13% | 7% | -3% | -2% | 1%
O=C(c1cc(COc2cccc(C(F)(F)F)c2)on1)N1CCC(c2ccccc2)CC1 | -3% | -6% | 4% | 1% | 0% | 6% | 11% | -1% | 0% | 10%
O=C(/C=C/c1ccccc1F)c1ccoc1 | 7% | -1% | 0% | -18% | 1% | 1% | -31% | -1% | -1% | 12%
C/C(=N\NC(=O)c1cccs1)c1c(O)cc(C)oc1=O | ? | 8% | ? | 8% | -7% | 0% | 28% | -3% | -14% | -6%
CS(=O)(=O)c1ccc([C@@H](O)[C@@H](CO)NC(=O)C(Cl)Cl)cc1 | 6% | -2% | -9% | -20% | -1% | -4% | . | 1% | -1% | 7%
CCOC(=O)CN1C(=O)SC(Nc2ccc(C)cc2)C1=O (stereo not given) | 7% | -1% | -26% | -3% | 0% | -2% | -4% | 1% | ? | 1%
O=S(=O)(c1ccccc1)N1CCN(c2ncnc3scc(-c4ccccc4)c23)CC1 | -23% | -1% | 14% | 3% | -1% | -19% | 5% | -3% | 2% | 6%

Exported with two lines to a compound: 8 of the compounds above
Every second line gives: ELG1 repair inh, ASM inhibitor, Chronic BCR inh, Eya2 phos inh, TCR activator, Mito fusion act, a7 integrin act, TSG101-PTAP inh, Tb PFK block, A-T KAP1 phos
O=C(CSc1n[nH]c(-c2ccccc2)n1)c1ccccc1
  ?, 4%, ?, -31%, 5%, 13%, 18%, -2%, -13%, 0%
COc1ccccc1[N+](=O)[O-]
  5%, -7%, 0%, 13%, -4%, -14%, ., 1%, 0%, -1%
COc1ccc(-c2nnc(S/C(=C/c3ccc(Cl)cc3)C(=O)O)o2)cc1
  -12%, 0%, -1%, 4%, ., -7%, 11%, -3%, -6%, -5%
CC1CCCN(S(=O)(=O)c2ccc(NC(=O)CNC3CCCC3)cc2)C1 (stereo not given)
  -5%, 7%, -9%, -16%, 0%, -9%, -3%, 2%, -11%, -4%
COc1ccc2cc(C#N)c(N3CCOCC3)nc2c1
  -26%, 135%[activator], -11%, -2%, ., -4%, 6%, 0%, 2%, 21%
CC(C)CCNC(=O)C(c1ccco1)N(Cc1ccccc1)C(=O)c1snc(C(N)=O)c1N (stereo not given)
  ?, 310%[activator], 3%, 2%, ., 4%, -19%, ., -6%, 3%
CC(=O)O[C@H]1CC2(C)[C@@H](C[C@@H](O)[C@H]3[C@@]4(C)CC[C@@H](O)[C@@H](C)[C@@H]4CC[C@@]32C)C1=C(CCC=C(C)C)C(=O)O (stereo not given in full)
  ., ., ., 2%, ., -1%, ., ., ., .
Cc1cc(N/N=C/c2ccc(F)cc2)nc(-n2nc(C)cc2C)n1
  ?, -1%, ?, -3%, 2%, ?, -30%, -4%, 4%, 38%
